Bioassay records as filed in PubChem.
Tgondii IFNg – T. gondii growth inhibition with IFN-gamma, primary screen, cell-based | Toxoplasma gondii growth in IFN-gamma-treated host cells; stronger effect = lower value; reference of the scale not given here | activity change, negative = inhibition, %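 (about 20 µM by stock and volumes)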 | 3.8% of 69,000 active | AID 1259416, 2018;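 active = below -70%; inconclusive = fit judged invalid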;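 note: host cells are HeLa cells infected with Toxoplasma gondii; parasite growth read as luciferase light; one replicate is shown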
An asterisk follows results filed as active; i = inactive; ? = inconclusive. This is a subset; count on the stated rates, not on these rows.

SMILES	Tgondii IFNg
CCN1c2ccc(C)cc2C(=O)NC12CCN(C(=O)c1cccc(OC)c1)CC2	97.1
COc1cccc(C#Cc2ccc3c(c2)O[C@@H](CN(C)C(=O)CN2CCOCC2)[C@@H](C)CN([C@@H](C)CO)S3(=O)=O)c1	?
NC(CCc1ccccc1Cl)c1ccc2c(c1)OCCO2 (stereo not given)	-60.9
Cc1ccc(-c2nc(CN3CCN(Cc4cc(=O)oc5cc(C)ccc45)CC3)c(C)o2)cc1	4.2
CCOc1nc(Nc2ccc(OC)cc2)nc(N2CCOCC2)n1	-58.6
CCc1ccc(NC(=O)Cn2ncc3c(N4CCCC4)ncnc32)cc1	-36.9
CO[C@@H]1CN(C)C(=O)c2cc(NC(C)=O)ccc2OC[C@H](C)N(C(=O)Cc2ccccn2)C[C@@H]1C	163.5
CCOc1ccc(NC(=O)CN2CCC3(CC2)N=C(c2ccc(Cl)cc2)C(=O)N3)cc1	4.3
Cc1nc(CN2CCCCC2CCc2ccc(O)cc2)no1 (stereo not given)	6.5
Cc1cccc(CNc2nc(-c3nnc(-c4ccc(F)cc4)o3)nc3ccccc23)c1	-101.0*
CO[C@@H]1c2ccccc2C2(CCN(Cc3[nH]cc(C)c(=O)c3C)CC2)[C@H]1O	13.2
c1coc(CN2CCC3(CCOCC3COc3cnccn3)CC2)c1 (stereo not given)	2.2

A different layout for part of the listing above.
> CO[C@@H]1CN(C)C(=O)c2cc(NC(C)=O)ccc2OC[C@H](C)N(C(=O)Cc2ccccn2)C[C@@H]1C
  Tgondii IFNg: 163.5

> CCOc1ccc(NC(=O)CN2CCC3(CC2)N=C(c2ccc(Cl)cc2)C(=O)N3)cc1
  Tgondii IFNg: 4.3

> Cc1nc(CN2CCCCC2CCc2ccc(O)cc2)no1 (stereo not given)
  Tgondii IFNg: 6.5

> Cc1cccc(CNc2nc(-c3nnc(-c4ccc(F)cc4)o3)nc3ccccc23)c1
  Tgondii IFNg: -101.0*

(cont.)
SMILES	Tgondii IFNg
CC(C)c1cc(C(=O)N2C[C@@H](C(=O)NC(C)(C)C)[C@@]3(Cc4ccccc4C(=O)N3)C2)no1	-7.8
Cc1onc(-c2c(Cl)cccc2Cl)c1-c1nnc(NC(=O)c2ccco2)s1	-61.2
Cc1nc(C2CCCN(C(=O)C3CCC3)C2)ncc1C(=O)N1CCOCC1 (stereo not given)	-6.3
COc1ncccc1-c1cnoc1-c1ccsc1	-5.9
CCc1ccc(S(=O)(=O)N2CCCn3nnc(CN4CCCCC4)c3C2)cc1	0.1
C=CCN1CCC2(CC1)CC(NC(=O)c1cnc[nH]1)c1ccccc1O2 (stereo not given)	86.1
COc1ccc(-c2nc3ccc(C)cn3c2NC2CCCC2)cc1O	8.4
CCOC(=O)c1coc(N2CC[C@@H](N3CCOCC3)[C@H](O)C2)n1	12.6
CC(C)(C(=O)N1CCCC2(CCNC2)C1)n1cccc1 (stereo not given)	-57.2
Nc1n[nH]c(=O)c2cc(-c3ccc(Cl)cc3)[nH]c(=O)c12	32.9
CCOC(=O)c1cccc(NC(=O)Nc2ccc(-c3nc(-c4ccccc4)co3)cc2)c1	24.3
O=C(CN1C(=O)CCc2cc(S(=O)(=O)N3CCOCC3)ccc21)NCc1ccccc1	27.2
Cc1ccc(-c2nc(Cn3nnc(-c4nc(-c5ccc(OCC(C)C)cc5)no4)c3C)c(C)o2)cc1	-11.3
CO[C@@]1(NC(=O)C2SC(=C(C(N)=O)C(=O)O)S2)C(=O)N2C(C(=O)O)=C(CSc3nnnn3C)CSC21 (stereo not given in full)	0.1
Cc1ccc(N(CC(=O)NCCCC2CCOC2)S(C)(=O)=O)cc1 (stereo not given)	1.0
C[C@H](CO)N1C[C@H](C)[C@@H](CN(C)C(=O)Nc2cccc3ccccc23)Oc2ccc(NS(=O)(=O)c3cn(C)cn3)cc2C1=O	24.4
O=C(NCc1cccnc1)C1CC2CN(Cc3ccc(Cl)cc3)CC1O2 (stereo not given)	-9.8
CNc1ncccc1C(=O)N1CCOC(CC2CCCCC2)C1 (stereo not given)	5.0
CN1C(=O)c2cc(NC(=O)c3ccc4c(c3)OCO4)ccc2OC[C@@H]2O[C@@H](CC(=O)O)CC[C@@H]21	4.0
NCCc1cc2nc(-c3ccncc3)ccn2n1	-4.6
O=C(C[C@H]1CC[C@H]2[C@@H](COC[C@H](O)CN2Cc2cc(F)cc(F)c2)O1)Nc1nccs1	13.1
O=C(COc1ccccc1)N1CCc2c([nH]c3ccccc23)C1c1ccc(Cl)cc1 (stereo not given)	-69.7
CC(C)(C)c1csc(NC(=O)COc2ccc3ccccc3c2)n1	-25.8
O=C(O)c1nccnc1C(=O)N1CCN(c2ncccn2)CC1	20.7
COc1ccc(-n2cc(CN(C)Cc3nonc3C)c(-c3cccc(F)c3)n2)cc1	-4.7
CCN(CC)Cc1nc2c(o1)CN(S(=O)(=O)c1cccc(C)c1)C2	-8.0
CC(C)(C)S(=O)N1Cc2cc(C(=O)NCc3ccc4c(c3)OCO4)nc(-c3cccc(-c4cccc(F)c4)c3)c2[C@@H]1CCO (stereo not given in full)	-67.5
CC(C)N1CCCn2c(nc(CNC(=O)c3ccsc3)cc2=O)C1	-4.5
CCN(C(=O)c1cc(-c2ccccn2)n[nH]1)C1CCN(C)CC1	-9.6
CCN1CC2(CCN(C(=O)COc3ccccc3)CC2)COc2ccccc2S1(=O)=O	-52.0
Cc1cc(CCC(=O)O)nc(C2CCN(S(C)(=O)=O)CC2)n1	-32.6
CNC[C@@H]1OCCCC[C@H](C)Oc2ccc(NS(=O)(=O)c3ccc(F)cc3)cc2C(=O)N([C@H](C)CO)C[C@@H]1C	270.7
COc1ccccc1N1CCN(C(=O)c2cc3cccnc3n(Cc3ccccc3F)c2=O)CC1	22.6
NC1=NC2(CCN(Cc3ccccc3)CC2)n2c(nc3ccccc32)N1	-22.4
Cc1cc(C)cc(CN2CCC3(CC2)CCN(c2cncnc2)C3=O)c1	-49.7
Cc1ccnc(NCCNC2CCN(C(=O)C3CCCO3)CC2)c1 (stereo not given)	0.0
COc1c2ccoc2cc2oc(C)cc(=O)c12	0.9
C=CCNc1ncnc2c1cnn2-c1ccccc1	-29.8
Cc1ccc(C2(O)CCN(C(=O)C3=Cc4ccccc4OC=C3)CC2)nc1	92.3
COc1ccc2c(c1)[N+](C)(C)C(C)(C)C=C2C	-2.9
CN(C)C(=O)c1ccn(-c2ccc3ccc(-c4cnn(C)c4)cn23)n1	-4.5
Cc1cccc(N2CCN(Cc3nncn3C)CC2)c1C	-3.7
Cc1nn(Cc2nc(-c3ccc(NC(=O)C4CCCCC4)cc3)oc2C)c(C)c1C	-41.8
CCCCCCC(=O)Nc1c2c(nc3ccccc13)N(C)CC2	3.4
COc1ccc(S(=O)(=O)N(C)CC(=O)NCC2CCCO2)cc1 (stereo not given)	18.3
O=C(N[C@H]1CN[C@H](C(=O)NCCCn2ccnc2)C1)c1cccc(Cl)c1	5.8
CCn1c(C2CCCN(S(=O)(=O)N3CCN(C)CC3)C2)nn(C)c1=O (stereo not given)	-0.5
O=C(O)C1CC2(CCNCC2)CN1C(=O)CCCc1cn[nH]c1 (stereo not given)	-2.8
Cc1oc(-c2ccc(C(F)(F)F)cc2)nc1CN1CCC(c2nc3ccccc3[nH]2)CC1	-12.1
C[C@H](CO)N1C[C@H](C)[C@H](CN(C)Cc2ccccc2C(F)(F)F)OCc2ccccc2-c2ccccc2C1=O	-56.9
COc1cccc(NC(=O)N[C@H]2CC[C@@H](CC(=O)N3CCN(C)CC3)O[C@H]2CO)c1	-35.6
CCCCN(CC)C(=O)c1cc(-c2cnc(N3CCOCC3)nc2)cn1C	27.3
COCCn1cnnc1Cn1ccnc1-c1ccsc1	3.5
CCc1[nH]c2c(CNS(=O)(=O)c3cnn(C)c3C)cc(C)cc2c1C	0.4
COc1ccccc1NC(=O)Cn1c(=O)cc(C(=O)N2CCOCC2)c2ccccc21	8.4
O=C(COc1ccc(Cl)cc1)Nc1ccc(Cl)cn1	196.8
O=S(=O)(c1ccc(F)c(F)c1)N1CCC2(CC1)Nc1ccc(Cl)cc1-n1cccc12	17.6
CN(C)C(=O)[C@@H]1C[C@@H]2OCC[C@@H]2N(Cc2ccoc2)C1	485.7
Cc1cc(C)c2c(=O)n(Cc3nc(-c4ccc(C(C)C)cc4)oc3C)c(=O)n(-c3ccccc3)c2n1	1.2
C[C@H](Cn1cnc2c(N)ncnc21)OCP(=O)(O)O	21.5

Going on with the list:
SMILES	Tgondii IFNg
Cc1ccc(C(C(=O)NCc2ccc(-c3noc(C)n3)cc2)N(C)C)cc1 (stereo not given)	-1.3
O=C(Nc1ccc(C(F)(F)F)cn1)Nc1ccc(-c2ccccc2)s1	-27.9
Clc1ccc(CSc2nc(Nc3ccccc3)c3cnn(-c4ccccc4)c3n2)cc1	?
COCC1(C(=O)N2CC(c3ccncc3)C2)CCC1	10.5
Cc1oc(-c2ccc(NC(=O)c3ccc(F)c(Cl)c3)cc2)nc1Cn1cccn1	-69.1
CC1=NN(Cc2ccccc2)C(=O)C1C(c1ccccc1)C(C#N)C#N (stereo not given)	114.9
c1ccc2c(N3CCN(Cc4cc5n(n4)CCNC5)CC3)nsc2c1	-3.1
CN1C[C@H](NC(=O)c2c[nH]n3ccnc23)C[C@H]1CO	2.5
Fc1cccc(CN(CCCn2ccnc2)Cc2cnn(C3CCCCC3)c2)c1	-29.0
CC(=O)N1CC(=O)N(c2ccccc2)CC12CCN(C(=O)N1CCCC1)C2 (stereo not given)	1.3
CN1CCCCN2[C@H](C1)[C@@H](c1ccc(-c3ccc(F)cc3)cc1)[C@@H]2CO	-4.3
C[C@H]1CN([C@@H](C)CO)C(=O)CCCn2nncc2CO[C@H]1CN(C)C(=O)c1ccc(N2CCN(C)CC2)cc1	76.1
CO[C@@H]1CN(C)C(=O)c2cc(NC(=O)c3cccc(F)c3)ccc2OC[C@H](C)N(C)C[C@H]1C	50.6
COCC(=O)N1C[C@@H]2COC[C@]2(COCc2csc(C)n2)C1	-11.6
O=C(NC[C@@]12COC[C@@H]1CN(Cc1nccs1)C2)c1ccco1	-46.6
O=C(CCC1Nc2c3ccccc3nc(=S)n2C1=O)NCCc1ccccc1Cl (stereo not given)	4.0
CC1CC(=O)Nc2ccccc2N1C(=O)Nc1ccccc1OC(F)(F)F (stereo not given)	-22.6
Cc1nc(CCNC(=O)c2ccc(C3CCCO3)s2)sc1C (stereo not given)	38.9
COc1ccc(NC(=O)N(C)C[C@@H]2OCc3cnnn3CCCC(=O)N([C@H](C)CO)C[C@@H]2C)c(OC)c1	i
Cc1ccc(CN(C)Cc2c(C(=O)N3CCc4ccccc4C3)nc3ccc(Cl)cn23)o1	12.9
COc1cc(C)c(C(c2ccc(N(C)C)cc2)c2ccc(N(C)C)cc2)cc1C	-96.7*
Cc1ccc(S(=O)(=O)NC2=NCN(CCOC(=O)c3ccccc3)CN2)cc1	0.4
Nc1cc(S(=O)(=O)C(F)(F)F)cc(S(=O)(=O)C(F)(F)F)c1	-31.1
C[C@@H]1CCCCO[C@@H](CN(C)S(C)(=O)=O)[C@H](C)CN([C@H](C)CO)C(=O)c2cc(NC(=O)NC3CCCCC3)ccc2O1	7.2

Of the compounds above, these contain a thiophene ring, fused or not:
SMILES	Tgondii IFNg
COc1ncccc1-c1cnoc1-c1ccsc1	-5.9
CC(C)N1CCCn2c(nc(CNC(=O)c3ccsc3)cc2=O)C1	-4.5
COCCn1cnnc1Cn1ccnc1-c1ccsc1	3.5
O=C(Nc1ccc(C(F)(F)F)cn1)Nc1ccc(-c2ccccc2)s1	-27.9
Cc1nc(CCNC(=O)c2ccc(C3CCCO3)s2)sc1C (stereo not given)	38.9

Next entries follow:
SMILES	Tgondii IFNg
COc1cc2c(cc1OC)CN(CC(=O)N1CCC3(CC1)NC(=O)N(C)C3=O)CC2	2.8
CCC1CN(Cc2ccc3ccn(C)c3c2)CCN1C(C)C (stereo not given)	6.1
CCOC(=O)c1nc(Nc2cccc(SC)c2)c2ccccc2n1	22.4
COCCN1CCCC2(CCN(C(=O)C3CCOCC3)CC2)C1=O	128.4
c1ccc(C2CN(CC3CCOC3)CC23CCCC3)cc1 (stereo not given)	-8.3
Cc1ccc(C2(O)CCN(C(=O)c3cc(-c4ccncc4)n[nH]3)CC2)nc1	-15.6
CCCc1ccc(S(=O)(=O)N2CCc3nc(-c4ccccc4)sc3C2)cc1	12.0
O=C1NCC2(CCCN(C(=O)c3ccc(Oc4ccccc4)o3)C2)O1 (stereo not given)	13.1
Brc1ccc2c(c1)c1ccccc1n2CN1CCCCC1	22.1
O=C1CCCc2occ(C(=O)N3[C@H]4CCNC[C@@H]3CC4)c21	16.1
CCN(CC1CCOCC1)C(=O)CCNC(=O)c1ccccc1F	-4.0
O=C(NCc1cccc(Cl)c1)c1ccc(-n2nc(C(F)(F)F)c3c2CCCC3)cc1	-11.3
O=C(Cn1ncc2c(N3CCCCCC3)ncnc21)Nc1ccc(OC(F)(F)F)cc1	-98.0*
COc1ccc(N2C(=O)[C@@H]3Cc4ccccc4CN3C2=O)cc1	-4.6
COc1ccc2c3c(n(C)c2c1)[C@H](CO)NCC31CN(C(=O)c2cccc(F)c2)C1	3.0
Cc1ccc(S(=O)(=O)N2CCCC(C(=O)NCCC3=CCCCC3)C2)cc1 (stereo not given)	-4.4
C=CCN1CCN(C)C2(CCN(C3CCOC3)CC2)C1=O (stereo not given)	178.0
C[C@@H]1CN([C@@H](C)CO)C(=O)c2cc(NC(=O)Cn3cnnn3)ccc2O[C@H]1CN(C)Cc1ccc(C(=O)Nc2ccccc2N)cc1	4.3
COc1ccc(F)c(-c2nc(COc3ccccc3C(N)=O)c(C)o2)c1	-31.1
CC(C)(C)OC(=O)NCCNc1ccc(C(F)(F)F)cc1N	71.8
CC(C)Nc1ncnc2c1c(C(=O)NCCN(C)C)c1ccccn12	-60.8
COc1ccc2[nH]c(CN3CCn4cncc4C3)c(C)c2c1	-11.8
